Bioassay records as filed in PubChem BioAssay.
RGS4 inhibitor: blocks human RGS4-accelerated GTP hydrolysis. 0.039% of 390,000 active. P49798. Potency, µM (highest dose often 114 µM), without a hit: at the top dose activity change, negative = inhibition, usual class: inhibitors. AID 504845. Transcreener GDP fluorescence polarization, RGS4-accelerated GTP hydrolysis; further: on the % scale 0 is the no-effect control and ±100 the full control effect; nearly all actives have a fitted effect of over 75% in size; some results filed as inactive show a strong effect at the top dose
Target sequence (P49798 whole entry, looked up): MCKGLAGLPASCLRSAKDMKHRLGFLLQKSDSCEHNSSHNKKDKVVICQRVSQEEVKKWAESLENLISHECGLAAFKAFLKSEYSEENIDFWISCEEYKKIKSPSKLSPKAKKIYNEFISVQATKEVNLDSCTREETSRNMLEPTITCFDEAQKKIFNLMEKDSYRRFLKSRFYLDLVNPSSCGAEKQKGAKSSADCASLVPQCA
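MLSMR compounds (23 nl, pin-transferred) preincubated 10 min at room temperature with a 500nM (2x) first reagent, then RGS4 at 900nM (2x) plus Transcreener GDP mix added; fluorescence polarization (620/688 nm) read before and after 90 min at 30 °C.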
ALOX12 inh: blocks human arachidonate 12S-lipoxygenase. 1.1% of 580,000 active. AID 1671190. purified 12hLO, xylenol orange hydroperoxide absorbance. Potency, µM (doses to about 108 µM), for the others: at the top dose activity change, negative = inhibition, actives largely listed as inhibitors; further: on the % scale 0 is the no-effect control and ±100 the full control effect
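Hydroperoxide product was detected by ferrous iron/xylenol orange as the 573 to 405 nm absorbance ratio. Arachidonic acid at 40 uM (final) was turned over for 30 min at room temperature by 150 nM human 12hLO, pH 7.0 Hepes buffer, after 15 min compound preincubation.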
TrxR1 substrate: rat thioredoxin reductase 1 substrate activity | O89049 | purified TrxR1 substrate turnover, NADPH consumption readout | Potency, µM (top dose mostly 114 µM), for inactives: at the highest dose activity change, negative = substrate turnover | 0.01% of 390,000 active; further: on the % scale 0 is the no-effect control and ±100 the full control effect; nearly all actives have a fitted effect of over 50% in size
Target sequence (O89049 whole entry, looked up): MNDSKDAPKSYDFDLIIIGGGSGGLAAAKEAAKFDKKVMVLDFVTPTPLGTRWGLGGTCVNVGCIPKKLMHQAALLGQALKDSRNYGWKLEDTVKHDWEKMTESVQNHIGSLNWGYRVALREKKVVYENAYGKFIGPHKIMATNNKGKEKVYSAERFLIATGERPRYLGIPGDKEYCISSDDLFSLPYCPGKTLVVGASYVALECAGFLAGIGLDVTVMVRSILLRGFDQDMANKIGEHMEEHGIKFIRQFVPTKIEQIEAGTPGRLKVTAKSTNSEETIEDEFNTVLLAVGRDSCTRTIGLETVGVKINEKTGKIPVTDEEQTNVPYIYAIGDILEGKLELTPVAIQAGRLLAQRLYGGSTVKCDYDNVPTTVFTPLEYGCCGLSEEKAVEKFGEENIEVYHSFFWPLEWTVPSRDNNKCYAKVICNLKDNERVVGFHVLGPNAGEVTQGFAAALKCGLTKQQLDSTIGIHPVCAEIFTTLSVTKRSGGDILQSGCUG
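Rat TrxR1, dispensed at 90 nM, was prereduced with 400 uM NADPH (final) for 5 min at ~22 deg C, then incubated with compound 15 min before 400 uM selenite. A first-read NADPH fluorescence drop versus no-compound background flagged substrates.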
USP1 inh: blocks the human USP1/UAF1 deubiquitinase complex | Potency, µM (series often up to 57.1 µM), inactives show top-dose activity change, negative = inhibition, actives largely listed as inhibitors | 0.23% of 390,000 active | recombinant USP1/UAF1, Ub-Rhodamine cleavage fluorescence; further: on the % scale 0 is the no-effect control and ±100 the full control effect; nearly all actives have a fitted effect of over 60% in size; inactives centre near -12
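USP1/UAF1 complex at 1 nM was preincubated with compound for 15 min at room temperature, then Ub-Rho substrate (150nM final) was added. Fluorescence (480/540 nm) was read kinetically, 6 reads every 60 seconds.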
Vif-APOBEC3G blk: inhibitors of Vif-APOBEC3G interaction. 0.076% of 410,000 active. AID 602310. HeLa A3G-eYFP + Vif (tagged APOBEC3G with the HIV-1 protein that degrades it), YFP fluorescence, overnight. Potency, µM (titrated, usually from 46.1 µM), without a hit: at the highest dose activity, negative = active, actives largely listed as inhibitors;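 further: on the % scale 0 is the no-effect control and ±100 the full control effect; nearly all actives have a fitted effect of over 60% in size; hits raise eYFP signal because A3G escapes Vif-driven loss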
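HeLa cells stably expressing Vif and C-terminally eYFP-tagged A3G, seeded overnight at 37 deg C, then exposed to compound by pintool overnight at 37 deg C. Rise in yellow fluorescence (Ex 488/Em 500-530, Acumen) marks blocked Vif-driven A3G degradation.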
TrxR1 inh: blocks rat thioredoxin reductase 1. O89049. recombinant rTrxR1, NADPH fluorescence consumption, selenite substrate. Potency, µM (doses to about 114 µM), inactives show at the highest dose activity change, negative = inhibition, hits mostly inhibitors. 1% of 390,000 active. AID 588453; further: on the % scale 0 is the no-effect control and ±100 the full control effect; nearly all actives have a fitted effect of over 65% in size
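Rat TrxR1 (90 nM in the dispensed reagent) was pre-reduced with 400 uM NADPH for 5 min at room temperature, then incubated with compound for 15 min. After 400 uM selenite was added, NADPH fluorescence (Ex 340/Em 450 nm) was followed for 8 min.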
Vif-APOBEC3F blk: Vif-A3F binding inhibition. HeLa A3F-eYFP + Vif (tagged APOBEC3F with the HIV-1 protein that degrades it), YFP fluorescence increase. Potency, µM (highest dose often 46.1 µM), inactives show at the highest dose activity, negative = active. 0.2% of 390,000 active; further: % of control where 0% means no effect; nearly all actives have a fitted effect of over 65% in size
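Fluorescence increase (Ex 488/Em 500-530) after overnight compound treatment at 37 deg C flags inhibition of Vif-driven A3F-eYFP loss in stable HeLa A3F-eYFP/Vif cells seeded overnight beforehand.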
mIDH1 inhibitor: human IDH1 R132H inhibition; O75874; IDH1-R132H enzyme, NADPH consumption, diaphorase/resazurin fluorescence; Potency, µM (series often up to 76.6 µM), for the others: at the highest dose activity change, negative = inhibition, actives largely listed as inhibitors; 0.093% of 390,000 active; further: on the % scale 0 is the no-effect control and ±100 the full control effect; nearly all actives have a fitted effect of over 65% in size
Target sequence (O75874 whole entry R132H, stated change not applied): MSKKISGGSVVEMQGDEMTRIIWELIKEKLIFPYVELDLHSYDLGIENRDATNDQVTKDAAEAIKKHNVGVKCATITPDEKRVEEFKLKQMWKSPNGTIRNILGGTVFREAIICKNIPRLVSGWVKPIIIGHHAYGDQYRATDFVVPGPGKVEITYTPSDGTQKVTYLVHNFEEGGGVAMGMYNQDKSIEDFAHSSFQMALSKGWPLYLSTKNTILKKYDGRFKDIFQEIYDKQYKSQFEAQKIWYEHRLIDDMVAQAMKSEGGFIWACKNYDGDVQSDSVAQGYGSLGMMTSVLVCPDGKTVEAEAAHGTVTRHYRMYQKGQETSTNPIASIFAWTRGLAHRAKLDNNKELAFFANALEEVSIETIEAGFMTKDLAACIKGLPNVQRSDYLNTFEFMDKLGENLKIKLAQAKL
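IDH1-R132H (0.5 ug/mL dispensed) in pH 7.5 Tris buffer was preincubated 30 min with compound, then given a substrate mix of 0.016 mM NADPH and 2 mM alpha-KG for 80 min at room temperature; remaining NADPH was read by diaphorase/resazurin fluorescence.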
* = called active by the depositor; i = inactive; ? = inconclusive; · = no result given; & = joins results of further samples; [ ] = dose if it differs, or a comment. The call rests on the fitted dose curve; in most records, active means well fitted curve in the direction sought with a large enough effect; inconclusive means small, poorly fitted or top-dose-only effect, or another doubt; inactive means no such curve, though single readings can be large; an effect the other way counts as inactive or inconclusive. Potency means the concentration at half of the fitted maximal effect.

Screens in order: RGS4 inhibitor	ALOX12 inh	TrxR1 substrate	USP1 inh	Vif-APOBEC3G blk	TrxR1 inh	Vif-APOBEC3F blk	mIDH1 inhibitor
- Cc1sc2ncnc(SCC(=O)NCC3CCCO3)c2c1C (centres undefined)
  -13%	0%	3%	-11%	3%	-19%	4%	1%
- CCc1nc(SCC(=O)NCCc2ccccc2)c2c(=O)n(C)c(=O)n(C)c2n1
  -14%	10%	-4%	-10%	4%	12%	3%	3%
- Cc1sc2ncnc(SCC(=O)N3CCC(c4noc5ccc(F)cc45)CC3)c2c1C
  31%	3%	-5%	-18%	1%	-1%	-1%	2%
- Cc1ccc(OCc2nnc(SCC(=O)Nc3cc(C)on3)n2C)cc1
  -3%	?	1%	-7%	1%	-1%	1%	6%
- COc1ccc(NC(=O)Cn2c(=O)n(Cc3ccco3)c(=O)c3sc4ccccc4c32)cc1OC
  -20%	0%	-3%	-25%	-4%	-18%	-6%	8%
- Cc1ccccc1NC(=O)c1nc(-c2ccncc2)no1
  13%	1%	-3%	-12%	3%	14%[11.4 µM]	10%	0%
- CC1=Nc2cc(C(=O)NCCc3ccc(Cl)cc3)ccc2Sc2c(C)ccc(C)c21
  9%	-2%	-3%	-30%	?	14%	-5%	-5%
- CCC1CCCCN1Cc1cn2c(-c3ccc(Br)cc3)nnc2s1 (centres undefined)
  -6%	-12%	5%[57.1 µM]	-26%	-4%	35%[57.1 µM]	-3%	-1%
- COc1ccc(C2C(C(C)=O)=C(O)C(=O)N2c2ccc(Br)cc2)cc1 (centres undefined)
  -5%	?	-6%	-23%	-1%	5%	8%	0%
- Cc1cc(NC(=O)CSc2nc3c(c(-c4cccnc4)c2C#N)CCC3)no1
  -10%	?	14%	?	0%	12%	-10%	2%
- C#CCNc1nc(CC)nc2c1nnn2Cc1ccccc1F
  -39%	0%	-2%	-19%	0%	0%	5%	3%
- CCOC(=O)N1CCN(C(=S)NC(=O)C2CCCC2)CC1
  21%	-2%	-2%	-6%	-1%	8%	-2%	0%
- O=C(NCc1ccco1)c1ccc(Cn2c(=O)c3ccccc3n(Cc3cccc(Cl)c3)c2=O)cc1
  -30%	0%	1%	?	-7%	-7%	-3%	15%
- O=c1c2cc3c(cc2nc2sc(Nc4ccc(F)c(Cl)c4)nn12)OCO3
  0%	-11%	6%	-17%	5%	5%	1%	3%
- Cc1cccc(C(=O)Nc2ccccc2OCc2cc(=O)n3c(C)csc3n2)c1
  29%	-21%	-6%	-15%	4%	6%	-1%	-3%
- CCNC(=O)C1CCN(c2nc3ccccc3nc2C(F)(F)F)CC1
  -14%	-23%	-5%[57.1 µM]	-23%	8%	0%[57.1 µM]	2%	0%
- COc1ccc(S(=O)(=O)N2CCCCCC2)cc1C(=O)N(C)Cc1c(F)cccc1Cl
  21%	103%[activator]	1%	-22%	-2%	15%	3%	0%
- CSc1ccc(CNC(=O)C2CCN(c3nc4ccccc4nc3C(F)(F)F)CC2)cc1
  -7%	-10%	-7%[57.1 µM]	-20%	6%	-2%[57.1 µM]	3%	-4%
- Cc1cc(NC(=O)c2cc(-c3ccccn3)nc3c(Cl)cccc23)no1
  -9%	0%	-10%	-5%	-2%	?	-1%	6%
- O=C(COC(=O)CSc1ccc2ccccc2c1Br)NC1CC1
  6%	0%	0%	-12%	-12%	10%	-39%	0%
- OC[C@H]1O[C@@H](n2cnc3c(Nc4ccccc4)ncnc32)[C@H](O)[C@@H]1O
  12%[56.9 µM]	11%	11%[57.1 µM]	-5%	-1%	23%[57.1 µM]	7%	1%
- Cc1ccc(C2=NNC(C(O)C(O)C(O)C(O)CO)S2)cc1 (centres undefined)
  -32%	?	5%	4%	0%	-9%	·	1%
- COc1ccccc1CNc1nccn(-c2ccc(F)cc2)c1=O
  7%	-9%	3%[57.1 µM]	-7%	-5%	4%[57.1 µM]	-1%	0%
- CC(=O)c1ccc(NC(=O)CSc2ccc3nnc(-c4cccnc4)n3n2)cc1
  -6%[11.4 µM]	0%	-1%	-7%	6%	14%	-4%	-5%
- Cc1cccc(CNC(=O)CCCn2c(=O)c3cccn3c3ccc(F)cc32)c1
  -15%	-15%	6%	-7%	-3%	20%[11.4 µM]	-4%	19%
- CC(=O)Nc1ccccc1OCc1cc(=O)n2c(C)csc2n1
  11%	-18%	-1%	-30%	1%	6%	-1%	8%
- Cc1csc2nc(COC(=O)c3ccccc3NC(=O)c3ccccc3Cl)cc(=O)n12
  11%	?	13%[57.1 µM]	-14%	2%	24%[57.1 µM]	1%	5%
- CCCCN(CCCC)C(=O)c1cc2c(=O)n3ccccc3nc2s1
  -10%	-30%	114%[activator]	?	0%	-6%	-2%	22%
- Cc1ccccc1OCCNC(=O)CSc1ccc(C(F)(F)F)cc1[N+](=O)[O-]
  -20%	?	-6%	-12%	-7%	4%	3%	-1%
- Cc1ccc(-n2c(SCC(=O)Nc3cccc(C)c3)nc3c(oc4ccccc43)c2=O)cc1
  11%	0%&-20%	3%	-22%	4%	27%	4%	0%

(list continues)
Screens in order: RGS4 inhibitor	ALOX12 inh	TrxR1 substrate	USP1 inh	Vif-APOBEC3G blk	TrxR1 inh	Vif-APOBEC3F blk	mIDH1 inhibitor
- c1ccc(-n2c(SCC3CCCCO3)nnc2-c2cnccn2)cc1 (centres undefined)
  -16%	i	-2%	-4%	-1%	-16%	·	6%
- O=C1C(=O)N(Cc2cccnc2)C(c2cccc(F)c2)/C1=C(/O)c1ccc2c(c1)OCO2 (centres undefined)
  33%	-15%	-20%	-6%	2%	?	-4%	-12%
- Cc1cccc(C)c1NS(=O)(=O)c1ccc(NS(=O)(=O)c2ccc3c(c2)OCCO3)cc1
  ?	?	-1%	-24%	-3%	7%	2%	?
- COc1cccc(NC(=O)Cn2c(=O)n(-c3ccc(Cl)cc3)c(=O)c3sc4ccccc4c32)c1
  -6%	?	9%	-18%	1%	16%	3%	-11%
- Cc1ccc(-n2c3c(c(=O)[nH]c2=O)C(NC(=O)c2ccccc2C)(C(F)(F)F)C(=O)N3)cc1 (centres undefined)
  2%	-20%	-7%	-13%	-6%	2%	-4%	4%
- Cc1noc(C)c1CSc1ccccc1C(=O)N(C)CC(=O)Nc1cccc(F)c1
  -15%	15%	-3%	-11%	2%	4%	3%	0%
- CCc1nnc(SCC(=O)Nc2ccc(F)cc2F)c2cc3sc(C)cc3n12
  28%	-11%	-3%	-2%	0%	21%	-1%	1%
- O=C(CCS(=O)(=O)Cc1cccc(Cl)c1)NCCc1ccccc1
  24%	0%	2%	-19%	2%	22%	0%	2%
- Cn1c(=NC(=O)CSCC(=O)N2CCOCC2)sc2ccccc21
  -8%	-9%	-6%	-1%	-2%	-1%[57.1 µM]	-1%	-1%
- CCOC(=O)Nc1cccc(Nc2ccccc2)c1
  12%	0%	-11%	-3%	0%	-7%	-2%	17%
- Cc1ccc(-c2nnc3c4ccccc4c(C)nn23)cc1NC(=O)c1cccc(Br)c1
  4%	0%	14%	-11%	3%	34%[activator]	0%	-4%
- COCCCNC(=O)C1CCN(C(=O)c2ccc(-n3ccc4ccccc43)s2)CC1
  -8%	-9%	-3%[57.1 µM]	2%	-1%	5%[57.1 µM]	-2%	2%
- Cc1cc(NC(=O)c2ccc3nc(-c4ccccc4)c(-c4ccccc4)nc3c2)no1
  14%	-4%	10%	-3%	-1%	12%	0%	5%
- Cc1ccc(CC(=O)CCc2ccccc2)cc1
  -23%	0%	-2%	-27%	-2%	0%	2%	-2%
- CCOc1ccccc1C(=O)NC1(C(F)(F)F)C(=O)Nc2c1c(=O)[nH]c(=O)n2-c1ccccc1 (centres undefined)
  0%	5%	-3%	?	-1%	-3%	3%	2%
- CC(=O)c1cccc(NC(=O)CCc2nnc3ccc(NCc4ccc5c(c4)OCO5)nn23)c1
  -6%	30%[activator]	-6%	-10%	4%	-10%	3%	5%
- O=C(C1CC(=O)N(c2ccccc2)C1)N1CCCCCC1 (centres undefined)
  1%	0%	8%	-26%	-1%	30%	2%	-6%
- Nc1nc(Cl)nc2c1ncn2[C@@H]1O[C@H](CO)[C@@H](O)[C@H]1O
  6%[56.9 µM]	-3%&-8%	5%[57.1 µM]	-13%	2%	6%[57.1 µM]	-2%	0%
- Cc1cccc(OCCNC(=O)CSc2ccc(C(F)(F)F)cc2[N+](=O)[O-])c1
  0%	?	-14%	-20%	2%	-2%[57.1 µM]	-2%	5%
- CCc1nc(SCC(=O)Nc2nc3c(s2)CCCC3)c2ccccc2n1
  -39%	-26%	-5%	?	-9%	16%	2%	7%
- O=Nc1c2nc3ccccc3n(O)c-2c2ccccc12
  ·	1%	·	·	·	·	·	·
- Cc1cccc(Cn2c(=O)n(CCC(=O)NCc3ccc4c(c3)OCO4)c(=O)c3sccc32)c1
  -15%	-8%	7%	-17%	3%	14%	-6%	0%
- Cc1ccccc1NC(=O)c1sc2nc(-c3ccncc3)ccc2c1N
  -49%	0%	-2%	-33%	-20%	8%	0%	-5%
- CCNc1nc(Cl)nc(-c2cn(-c3ccccc3)c3ccccc23)n1
  8%	-28%	10%[57.1 µM]	-18%	0%	49%[activator]	-4%	1%
- CCOC(=O)c1ccc(NC(=O)CSc2nnc(-c3cccs3)n2C)cc1
  -45%	?	-4%[57.1 µM]	-14%	1%	3%[57.1 µM]	-2%	17%

3 compounds already listed, ordered by molar mass, rising:
Screens in order: RGS4 inhibitor	ALOX12 inh	TrxR1 substrate	USP1 inh	Vif-APOBEC3G blk	TrxR1 inh	Vif-APOBEC3F blk	mIDH1 inhibitor
- O=C1C(=O)N(Cc2cccnc2)C(c2cccc(F)c2)/C1=C(/O)c1ccc2c(c1)OCO2 (centres undefined)
  33%	-15%	-20%	-6%	2%	?	-4%	-12%
- Cc1ccc(-n2c3c(c(=O)[nH]c2=O)C(NC(=O)c2ccccc2C)(C(F)(F)F)C(=O)N3)cc1 (centres undefined)
  2%	-20%	-7%	-13%	-6%	2%	-4%	4%
- COc1cccc(NC(=O)Cn2c(=O)n(-c3ccc(Cl)cc3)c(=O)c3sc4ccccc4c32)c1
  -6%	?	9%	-18%	1%	16%	3%	-11%

A portion of the library; count on the stated rates, not on these rows.
